Rce1 inh: yeast Rce1p protease inhibitors, primary screen, biochemical, fluorescence, cell-free homogeneous; CAAX prenyl protease 2 (Saccharomyces cerevisiae (strain ATCC 204508 / S288c)), Q03530; yeast membranes, quenched prenylated peptide cleavage fluorescence; calls only; 0.27% of 290,000 active;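 active means fall in fluorescence gain of 50% or more versus controls, with final raw signal at or below 3038400; inconclusive means same 50% fall but final raw signal above 3038400; inactive means fall in fluorescence gain under 50%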;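 further: plate controls were neutral control wells for no effect and wells lacking membranes for full effect; tested at 10 µM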
Env fusion inh: inhibitors of HIV-1 Env-driven cell-cell fusion, primary screen, HeLa-JRFL effector, CEM21 target cells, luciferase | inhibition, % at 12.3 µM | 1.1% of 360,000 active | AID 651610, 2012;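 active means mean replicate inhibition score of at least 50 and every replicate individually at or above 50; inconclusive means only one of the two criteria met; inactive means mean below 50 and not all replicates reaching 50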;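 further: 0% = plate neutral controls and 100% = maraviroc near 300 nM; one replicate is shown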
eIF4H FP inh: human eIF4H binding inhibitors, primary screen, translation initiation inhibitor project, biochemical, uHTS, fluorescence polarization; Eukaryotic translation initiation factor 4H (Homo sapiens), Q15056; AID 2012, 2009; eIF4H fluorescence polarization binding assay; inhibition, % at 35 µM; 0.94% of 290,000 active;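 active means 50% or more with normal probe brightness, or confirmed in later tests; inconclusive means above 50% with abnormal brightness, or retests that disagree; inactive means below 50% or failed in later tests; about a fifth of its hits are not listed in these tables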;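 further: calls also rest on retests at 20 µM and on dose response follow-up; 0% = protein and probe with vehicle and 100% = probe without protein; strong numbers were not always called active; many hits fall short of the cut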
CSC inhib: cancer stem cell viability inhibitors, primary screen, luminescence | cancer stem cell-like cells viability | inhibition, % at 7.5 µM | 1.1% of 300,000 active | AID 2717, 2010;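 active means mean at 75% or more and at least half the replicates too; inconclusive means mean and replicates disagree; tested in HMLE shEcad cells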;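 further: 0% = median of negative and 100% = median of positive control wells; the first replicate is given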
Yeast UUG start: modulators of yeast start codon fidelity, primary screen, whole organism, S. cerevisiae, single point, plate reader | S. cerevisiae UUG-firefly luciferase reporter, luminescence/redox ratio | activity score, % at 18.7 µM | 0.13% of 350,000 active | AID 602363, 2012;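 active means replicate mean at a twofold rise or more, about +100% in these data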;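 further: firefly luciferase made from a UUG start codon reports start codon fidelity; reporter light over untreated wells divided by growth signal over untreated wells; some hits fall short of that in this replicate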
PABP FP inh: PABP poly(A) RNA binding inhibitors, primary screen, biochemical, fluorescence polarization, uHTS. AID 2014, 2009. 1% of 290,000 active. Polyadenylate-binding protein 1 (Homo sapiens), P11940. inhibition, % at 35 µM;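 active means 50% or more with normal probe brightness, or confirmed in later tests; inconclusive means above 50% with abnormal brightness, or retests that disagree; inactive means below 50% or failed in later tests; about a fifth of its hits are not listed in these tables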;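 further: calls also rest on retests at 20 µM and on dose response follow-up; controls were probe without protein and protein plus probe with vehicle; some compounds called inactive have numbers as strong as hits; many hits fall short of the cut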
Target sequence (P11940 whole entry, looked up): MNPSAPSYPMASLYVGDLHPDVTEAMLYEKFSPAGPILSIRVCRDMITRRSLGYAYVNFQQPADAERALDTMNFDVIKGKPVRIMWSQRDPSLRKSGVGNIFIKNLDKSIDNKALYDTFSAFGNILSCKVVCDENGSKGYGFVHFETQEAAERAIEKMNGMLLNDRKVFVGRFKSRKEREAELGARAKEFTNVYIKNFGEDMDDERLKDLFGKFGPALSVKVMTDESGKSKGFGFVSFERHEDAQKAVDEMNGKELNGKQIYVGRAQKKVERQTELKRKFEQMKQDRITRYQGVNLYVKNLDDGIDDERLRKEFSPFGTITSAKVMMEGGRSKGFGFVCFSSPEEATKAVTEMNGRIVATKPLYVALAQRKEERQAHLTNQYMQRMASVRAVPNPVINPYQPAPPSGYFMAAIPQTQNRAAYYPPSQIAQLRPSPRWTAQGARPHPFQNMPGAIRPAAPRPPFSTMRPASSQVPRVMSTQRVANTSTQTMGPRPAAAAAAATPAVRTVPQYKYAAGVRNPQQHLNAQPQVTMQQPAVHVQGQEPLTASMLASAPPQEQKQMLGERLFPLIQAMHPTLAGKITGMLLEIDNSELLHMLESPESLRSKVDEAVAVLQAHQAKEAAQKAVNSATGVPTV
MT1-MMP act inh: blockers of MT1-MMP proenzyme processing, primary screen, HT1080 RFP-PRO-GFP cells, GFP/RFP fluorescence; GFP/RFP ratio fluorescence, overnight; percent of plate control window, DMSO zero; GFP/RFP ratio change, % at 20 µM; 0.061% of 360,000 active;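 active means GFP/RFP ratio change of at least 30% with cell ATP level not reduced by more than half and red fluorescence within 50% of control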; further: strong numbers were not always called active
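Compound: 20 µM single dose, 1% DMSO / System: HT1080 RFP-PRO-GFP cells / Controls: DMSO and RFP-L50D-GFP cell wells / Read-out basis: GFP/RFP fluorescence ratio / Schedule: overnight compound exposure at 37 °C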
eIF4H FP inh retest: second read-out of eIF4H FP inh, no call of its own (marks repeat the call); inhibition, %; compound at 20 µM; confirmation average;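 mean of two retest wells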
PABP FP inh retest: further read-out of PABP FP inh, marked with its call; inhibition, %; compound at 20 µM; confirmation repeats;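 mean of two retest wells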
MT1-MMP act inh RFP: further read-out of MT1-MMP act inh, marked with its call; RFP signal change, %; measured here: RFP expression control read;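 0 = vehicle wells; hits needed this value within 50% of zero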
* marks the source's active call; other numbers are inactive results; i = inactive; u = inconclusive; x = not tested or not shown; + = active, no number; & = joins results of further samples.

Sample of the layout, 3 compounds:
SMILES	Rce1 inh	Env fusion inh	eIF4H FP inh	CSC inhib	Yeast UUG start	PABP FP inh	MT1-MMP act inh	MT1-MMP act inh RFP	others
Cc1ccc(-c2nc(C(=O)NCC3CCCO3)cc3c2[nH]c2ccccc23)cc1 (stereo not given)	i	x	0	46	-4	3	-30	-26
Cc1ccc(/C(N)=N/OC(=O)Cc2cccc3ccccc23)cc1	i	0	-7	18	x	-3	0	-2
CC1CCC(=NNC(=O)Cc2cccn2C)CC1 (stereo not given)	i	-11	1	-2	x	5	6	2

All compounds of this part, from the first entry:
SMILES	Rce1 inh	Env fusion inh	eIF4H FP inh	CSC inhib	Yeast UUG start	PABP FP inh	MT1-MMP act inh	MT1-MMP act inh RFP	others
Cc1ccc(-c2nc(C(=O)NCC3CCCO3)cc3c2[nH]c2ccccc23)cc1 (stereo not given)	i	x	0	46	-4	3	-30	-26
Cc1ccc(/C(N)=N/OC(=O)Cc2cccc3ccccc23)cc1	i	0	-7	18	x	-3	0	-2
CC1CCC(=NNC(=O)Cc2cccn2C)CC1 (stereo not given)	i	-11	1	-2	x	5	6	2
CCc1cc(C(=O)OC)c(NC(=O)CN2CCN(C(=O)c3ccco3)CC2)s1	i	3	3	6	-9	11	2	-8
NS(=O)(=O)c1cccc(NC(=O)CSc2nnc(C3CC3)n2-c2ccccc2)c1	x	-4	x	-11	x	x	-1	1
Cc1cc(C)c(NC(=O)COC(=O)/C=C/c2cccs2)c(C)c1	i	6	12	-14	x	-8	-1	0
CCOC(=O)c1sc(NC(=O)C(C)Sc2nnc(N)s2)nc1C (stereo not given)	i	11	4	-8	x	-7	-1	-2
COC(=O)c1cc(=O)n(Cc2ccc(F)cc2)c(=Nc2ccccc2)s1	i	9	1	86*	x	12	-1	-6
Cc1cc(N2CCCC2=O)c(N)cc1N	i	x	6	-1	-19	-6	3	3
COc1ccc(C(=O)/C=C/c2ccc(N3CCCCC3)c([N+](=O)[O-])c2)c(OC)c1	i	x	-2	97*	-4	-4	-2	-7
NC(=O)c1cc([N+](=O)[O-])ccc1NCc1cccnc1	i	-15	-2	x	x	23	2	-3
COCCCNC(=O)C1CCN(c2nc(C)cc(C)n2)CC1	i	2	-16	x	-9	-2	2	4
O=C(CN1CCN(C(=O)c2cccs2)CC1)Nc1ccc(Br)cc1	i	x	-4	14	0	-6	2	-1
N#CC1(NC(=O)COC(=O)c2ccccc2[N+](=O)[O-])CCCCC1	i	-2	x	-16	4	x	2	2
COc1cc(NC(=O)CSc2nc3c(c(=O)n(C)c(=O)n3C)n2C)cc(OC)c1	i	1	-9	-11	-35	0	0	1
Cc1c(OCc2ccccc2)cccc1OCc1ccccc1	i	-12	5	7	-20	13	6	-2
CCNC(=O)C1CC(=O)N(Cc2ccc3c(c2)OCO3)C(=Nc2ccc(OCC)cc2)S1 (stereo not given)	i	-5	1	x	-20	3	-2	0
Cc1cc(NCCCN2CCOCC2)n2c(nc3ccccc32)c1C#N	i	-44	80*	-23	-13	85*	3	-1
CCCN(CC(=O)Nc1ccc(Cl)cc1Cl)C(=O)/C=C/c1cccc([N+](=O)[O-])c1	i	19	-23	20	-27	-2	3	-3
O=C(Nc1ccc(Cl)cc1C(F)(F)F)C(Sc1nnc(-c2cccs2)o1)c1ccccc1 (stereo not given)	i	-13	12	52	x	18	-9	-13
CCN(CC)S(=O)(=O)c1cccc(-c2nnc(SCCOc3ccc(Cl)cc3)o2)c1	i	u	-5	-8	-15	0	-12	-24
OCc1ncc(-c2ccccc2)s1	i	-11	4	-5	-20	0	-3	-2
O=C(O)CCC(=O)Nc1ccccc1N1CCOCC1	i	x	14*	-8	-3	55*	1	6	eIF4H FP inh retest=86*;PABP FP inh retest=102*
O=C(Nc1ccc(Cl)cc1)c1sccc1-n1cccc1	i	0	4	-10	x	22	-5	-1
CCOC1=C2[C@@H](CN(S(=O)(=O)c3ccc(C)cc3)[C@H]2c2ccccc2Cl)[C@H]2C(=O)NC(=O)[C@H]2C1	x	-5	x	x	2	x	-1	1
COc1ccc(OC)c(NC(=O)c2cccc(S(=O)(=O)N3CCN(C(C)=O)CC3)c2)c1	i	7	3	-7	-5	-14	0	1
Cc1ccc2nc(NC(=O)CSc3nncc(=O)n3N)sc2c1	i	0	-17	-12	-11	-3	-2	4
C/C(=N/OC(=O)c1cccc(Cl)c1)c1nccs1	i	-3	8	0	-13	7	-1	6
COC(=O)Nc1cc(C(F)(F)F)ccc1N1CCN(c2ccccc2)CC1	i	x	-5	-7	-9	-8	1	-3
O=C1CC(c2ccccc2)CC(O)=C1C=NCc1ccccc1 (stereo not given)	i	x	-3	-6	-7	1	2	2
CC1CCC(NC(=O)CCC(=O)N2CC(C)Oc3ccccc32)CC1 (stereo not given)	i	-29	-9	x	3	2	-1	7
CN(Cc1ccon1)C(=O)CC1C(=O)NCCN1CC(C)(C)C (stereo not given)	i	-6	17	-15	x	2	-3	-2
CCOc1ccccc1NS(=O)(=O)c1ccc2[nH]c(=O)[nH]c2c1	i	22	-16	-9	-7	7	-1	2
On1c(-c2ccccc2Cl)nc2ccccc21	i	2	-1	-3	x	9	-2	2
Cc1nn(Cc2cccc(C(=O)NC(C)c3ccc(C(C)(C)C)cc3)c2)c(C)c1[N+](=O)[O-] (stereo not given)	i	40	0	15	-12	-4	-16	-18
Cc1ccc(Nc2c(-c3ccco3)nc3nc(C)cc(C)n23)cc1	i	11	5	5	-18	6	-4	4
O=C(CCS(=O)(=O)c1ccc(F)cc1)N1CCN(c2ccccc2)CC1	i	-45	x	-9	-8	x	2	-2
O=C(Nc1cccc([N+](=O)[O-])c1)c1ccc(N2CCCC2=O)cc1	i	-36	0	-15	x	-14	3	-1
CNc1nc(-c2ccccc2)cc(-c2ccccc2)n1	i	31	-4	8	-14	5	-1	-1
CCN1CCc2c(sc(NC(=O)c3ccc(S(=O)(=O)N4CCOCC4)cc3)c2C(N)=O)C1	i	15	-4	-12	-6	-4	-3	5
O=c1nccc(Nc2ccccc2)[nH]1	i	7	1	-6	-11	-2	3	6
Cc1c(C(=O)NCc2ccc(C#N)cc2)sc(=O)n1Cc1ccc(C(=O)N(C)C)cc1	x	6	x	x	-17	x	5	-2
CC(C)c1ccc(NC(=O)CC2Oc3ccccc3NC2=O)cc1 (stereo not given)	i	19	1	-2	-15	-5	2	-1
COc1ccc(-c2c(C#Cc3ccsc3)c3cc(Br)ccc3n2C)cc1	x	2	x	33	5	x	6	-1
O=C(COC(=O)c1ccc(Br)o1)Nc1ccc(S(=O)(=O)N2CCCC2)cc1	i	-53	1	-4	-15	-7	0	0
CCN(CC)C(=O)C(=O)c1c(-c2ccccc2)[nH]c2ccccc12	i	9	0	-4	-11	6	2	0
O=C(Cc1cccc(NC(=O)C2CCN(C(=O)C3CCC3)CC2)c1)Nc1cccc(C(=O)N2CCCCC2)c1	x	-18	x	x	-1	x	3	4
CC(C)NC(=O)Nc1ccc(Br)cc1Cl	x	-2	0	-6	x	0	1	-11
C=CCN1C(=O)C(CC(=O)NCC)SC1=Nc1ccc(S(N)(=O)=O)cc1 (stereo not given)	i	x	-1	-6	-3	-9	-3	2
Cn1cnc(S(=O)(=O)Nc2ccc(C(F)(F)F)cc2)c1	i	x	1	-6	4	-3	-1	2
COCCNc1ncnc2c1ncn2[C@H]1CN(Cc2ccc(-c3ccccc3)cc2)C[C@@H](CO)O1	x	5	x	x	-9	x	-2	-20
CC(C)(C)c1ccc(Oc2ccc(NC(=O)c3ccccc3C(=O)O)cn2)cc1	i	24	28	21	1	-2	-14	-13
C[C@@H]1CN([C@@H](C)CO)C(=O)CCCn2nncc2CO[C@H]1CN(C)S(=O)(=O)c1ccccc1	x	-1	x	x	-20&-2&8	x	3	5
O=C(CN1CCCCCC1)N/N=C/c1cccs1	i	-26	-10	-12	0	11	2	2
O=C(Nc1sc2c(c1C(=O)O)CCC2)c1ccccc1Cl	i	19	0	-2	-32	5	-3	1
CCNc1nc(Oc2ccccc2)nc(OC(C)C(=O)OCC)n1 (stereo not given)	i	x	-1	-11	-8	-3	-1	4
CCNC(=O)C1(C)CCN(C(=O)c2ccc3snnc3c2)C1 (stereo not given)	x	-22	x	x	-4	x	-1	2
COCc1ccc(CN2CCC(n3nccc3NC(=O)C(OC)c3ccccc3)CC2)o1 (stereo not given)	i	-12	42	-9	-14	-2	-3	-4
COc1ccc(-n2nc(C(=O)NCC(=O)NCCCN3CCCCCC3)c3ccccc3c2=O)cc1Cl	i	2	1	-11	x	18	1	1
Cc1ccc(C(=O)NC(=S)Nc2cccc(NC(=O)c3ccccc3)c2)cc1[N+](=O)[O-]	i	14	8	7	x	-1	4	0

The list goes on:
SMILES	Rce1 inh	Env fusion inh	eIF4H FP inh	CSC inhib	Yeast UUG start	PABP FP inh	MT1-MMP act inh	MT1-MMP act inh RFP	others
COc1ccc(NC(=O)CN(C)C(=O)c2ccc(S(=O)(=O)Nc3ccccc3F)cc2)cc1	i	-11	x	-1	-16	x	-5	0
CCOC(=O)C1=C(CC)Nc2ccccc2N=C1NC(=O)CCNC(C)=O	i	24	4	1	-3	15	0	4
COc1cccc2c(=O)n(CC(=O)N3CCN(c4ccccc4)CC3)ccc12	i	11	-6	x	2	-3	0	0
CC(=O)NS(=O)(=O)c1ccc(NC(=O)NC2CCCCC2)cc1	i	-4	-1	-8	-5	1	2	4
O=C(c1cc(C2CC2)on1)N1CCCC(N2CCN(c3ccc(F)cc3)CC2)C1 (stereo not given)	i	9	-1	2	0	-3	1	-1
Cc1ccc(CN2C(=O)CCC2C(=O)NCc2ccc3c(c2)OCO3)cc1 (stereo not given)	i	x	-2	-6	10	1	1	-2
CCCn1nc(C(=O)NNC(=O)C2CSC3(C)CCC(=O)N23)c2ccccc2c1=O (stereo not given)	i	6	x	-8	x	x	3	2
COc1ccc(C2c3c(oc4ccccc4c3=O)C(=O)N2Cc2ccncc2)cc1OC (stereo not given)	i	-21	x	-2	x	x	x	x
CC1CN(Cc2cc(=O)oc3cc(O)ccc23)CC(C)O1 (stereo not given)	i	-3	0	-14	-3	-11	-1	0
C=CCNC(=S)N1CCC(C(N)=O)CC1	i	-1	-3	-16	17	-4	3	6
O=C(COC(=O)c1ccc(Br)o1)NCC1CCCCC1	x	x	x	-9	1	x	-1	2
Cc1ccc(NC(=O)CSc2nc(=O)cc(N)n2-c2ccccc2)cc1	i	-22	-8	0	3	-7	6	-1
O=C(CCS(=O)(=O)c1ccccc1)Nc1ccc(N2CCOCC2)cc1	i	15	7	19	x	-10	-11	1
COc1ccc(CC(=O)Nc2ccc(-c3csc(C)n3)cc2)cc1	i	x	0	8	4	5	1	-12
O=C1c2ccc(-c3ccc4c(c3)C(=O)N(CCO)C4=O)cc2C(=O)N1CCO	i	-14	-6	-4	x	5	2	4
Cc1ccc2nc3c(c(N)c2c1)CCN3C	+	-9	7	9	4	6	-1	0
COc1ccc(NC(=O)CSc2nnc(Cc3ccccc3)c(=O)n2N)cc1OC	i	4	x	-8	-28	x	2	-1
CNC(=O)N(C1=NCCCCC1)c1ccc(Br)cc1	i	5	-12	1	-32	-6	4	5
